Screening results deposited in PubChem by several laboratories.
ALR inh – human ALR oxidase inhibition via reduced H2O2; purified ALR, DTT oxidation, H2O2 HRP-luminol luminescence; P55789; inhibition, % (no concentration beside the values); 3.8% of 290,000 active;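 active means mean and each replicate at 75% or more; inconclusive means only one of the two met; inactive means neither met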;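 further: stock transfer was 7.5 nL into about 7.5 µL; 0% = neutral wells and 100% = wells with inactivated enzyme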
Target sequence (P55789 whole entry, looked up): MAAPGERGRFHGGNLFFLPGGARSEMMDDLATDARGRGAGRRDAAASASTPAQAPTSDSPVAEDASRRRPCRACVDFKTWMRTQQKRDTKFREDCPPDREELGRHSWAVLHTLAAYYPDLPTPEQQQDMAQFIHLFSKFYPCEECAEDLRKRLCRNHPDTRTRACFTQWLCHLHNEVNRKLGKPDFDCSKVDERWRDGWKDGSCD
FGF22 binding – FGF22 (human) thermal shift binding; calls only at 9.99 µM; AID 651658; recombinant FGF22 thermal shift, SYPRO orange fluorescence; percent of sucrose octasulfate shift, DMSO zero; 1.5% of 340,000 active;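 active means melting point raised past a set limit in the mean and every replicate; inconclusive means no clear call; three in four hits are not shown here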
Target sequence (Q9HCT0 whole entry, looked up): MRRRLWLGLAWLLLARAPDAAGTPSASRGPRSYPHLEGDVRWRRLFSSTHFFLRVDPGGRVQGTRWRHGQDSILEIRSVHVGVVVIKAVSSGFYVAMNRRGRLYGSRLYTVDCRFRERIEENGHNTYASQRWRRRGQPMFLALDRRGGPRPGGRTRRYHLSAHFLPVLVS
MLL AF4-AF9 inh – MLL-AF4/AF9 protein interaction inhibition. inhibition, % at 10 µM. AID 651704. AlphaScreen, biotin-AF4 peptide binding to FLAG-AF9. P42568. 0.47% of 350,000 active;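 active means every replicate reaching a set inhibition limit, whatever the replicate mean, cut at about 25% in these data; inconclusive means mean inhibition reaches that limit but some replicates miss it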;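 further: 0% = plate neutral control median and 100% = total signal loss; the record names both 10 and 1 µM as test concentration; the first replicate is given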
rRNA inh HTS – selective bacterial rRNA inhibition in E. coli; 1.6% of 350,000 active; AID 720706; E. coli WT GFP vs humanized-ribosome RFP mutants, fluorescence, 24 h; active compounds read low; DMSO median 0, no signal -100; GFP signal change (wild-type ribosome), % (test concentration not listed);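 active means significant combined selectivity score with lowered wild-type GFP, culture density cut under 30%, mutant RFP and density less affected; inactive means any of these conditions unmet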; further: one replicate is shown; some compounds called inactive have numbers as strong as hits
Vif A3G – HIV-1 Vif–A3G interaction blockers – biochemical, TR-FRET, GST-Vif 1-94, biotin-A3G peptide, dose response retest, primary screen (AID 1117319); TR-FRET GST-Vif / biotin-A3G peptide binding; higher % means a stronger effect; test concentration not given here; strong numbers were not always called active; 0.57% of 260,000 active; one-dose inhibition, %; IC50 in µM for titrated hits;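 active means above the screen mean plus three standard deviations and confirmed in dose response; inconclusive means results disagree or hit not tested in dose response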;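 further: Vif residues 1-94 fused to GST binding biotinylated APOBEC3G peptide 110-148; 0% = full assay without inhibitor and 100% = GST in place of GST-Vif; retest series ran down from 100 µM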
E coli growth – blocks Escherichia coli growth; 0.21% of 330,000 active; AID 1053175; OD600, 23 h; active compounds read low; OD600 absorbance (no concentration beside the values);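 active means OD600 absorbance below the run mean of sample wells minus 3.6 SD, in any replicate, cut at about 0.56 in these data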;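 further: stock transfer was 300 nL into about 60 µL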
HNF4A DNA FP – change in binding of human HNF4 alpha to DNA; AID 1224865; activity change, % at 10 µM; HNF4a-FITC DNA binding, fluorescence polarization, 1 h; 0.3% of 360,000 active; P41235; in the data active means activity change above about 30%, passing the limit was not always enough;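 further: controls were the assay level and a saturating level of protein; the project sought stronger binding though the title names inhibitors; some compounds called inactive have numbers as strong as hits; positive values seem to mean higher polarization but the record does not say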
Target sequence (P41235 whole entry, looked up): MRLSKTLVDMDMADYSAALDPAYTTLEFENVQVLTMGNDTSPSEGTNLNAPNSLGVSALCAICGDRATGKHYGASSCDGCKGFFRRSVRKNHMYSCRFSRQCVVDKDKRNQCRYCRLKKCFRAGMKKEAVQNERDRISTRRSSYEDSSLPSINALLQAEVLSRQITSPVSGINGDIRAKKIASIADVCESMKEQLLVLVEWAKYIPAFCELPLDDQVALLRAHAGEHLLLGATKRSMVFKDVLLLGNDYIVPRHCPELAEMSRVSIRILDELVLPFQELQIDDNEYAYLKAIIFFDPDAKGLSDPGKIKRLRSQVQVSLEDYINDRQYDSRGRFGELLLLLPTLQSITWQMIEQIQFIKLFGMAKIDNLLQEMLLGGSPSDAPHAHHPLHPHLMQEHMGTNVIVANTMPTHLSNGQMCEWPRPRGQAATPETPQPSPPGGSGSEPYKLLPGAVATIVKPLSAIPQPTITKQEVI
rRNA inh HTS OD600 – recorded beside rRNA inh HTS, whose call it bears; OD600 change, %; measured here: OD600 growth;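 optical density of the mix in the first replicate; 0 = DMSO median and -100 = no signal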
rRNA inh HTS RFP – also measured in rRNA inh HTS; calls as there; RFP signal change, %; measured here: RFP humanized mutant strains;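 first replicate; 0 = DMSO median and -100 = no signal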
An asterisk follows results filed as active; i = inactive; ? = inconclusive; nt = not tested or not shown; & = joins results of further samples. The list is partial, so the mix of outcomes need not match the whole.

SMILES | ALR inh | FGF22 binding | MLL AF4-AF9 inh | rRNA inh HTS | rRNA inh HTS OD600 | rRNA inh HTS RFP | Vif A3G | E coli growth | HNF4A DNA FP
COc1ccc(Nc2nnc(SC(C)C(=O)NC3CC3)s2)cc1 (configuration not stated) | 4.6 | i | -0.4 | -4.9 | -0.7 | -2.3 | -7.1% | 0.693 | 2.9
CC(C)OC(=O)c1cc(Cl)c(=O)n(Cc2ccc(Cl)cc2Cl)c1 | -4.9 | i | -5.5 | -9.5 | -13.6 | -0.8 | 7.7% | 0.659 | 4.1
COc1ccc(S(=O)(=O)Nc2cccc3c2O[C@@H](CN(C)Cc2ccc(C(=O)Nc4ccccc4N)cc2)[C@H](C)CN([C@H](C)CO)C3=O)cc1 | nt | i | -1.3 | 2.1 | 0.6 | -3.5 | nt | nt | nt
COc1ccc(-c2c(C)n([O-])c3c([n+]2=O)CCCCC3)cc1 | nt | i | 1.5 | 18.4 | 17.3 | -4.2 | 7.5% | 0.643 | -0.6
COc1ccc(CCNC(=O)CCS(=O)(=O)c2ccc(Br)cc2)cc1OC | -1.5 | i | -9.6 | nt | nt | nt | 20.0% | 0.725 | -2.0
COc1ccc(-c2cc(C(F)(F)F)nc(SCC(=O)Nc3sc4c(c3C#N)CCC4)n2)cc1 | -3.3 | i | 7.5 | -12.8 | -8.1 | 11.9 | -21.9% | 0.737 | 0.7
CC(=O)Nc1ccc(C(=O)CSc2nnc3scc(-c4ccccc4)n23)cc1 | 50.1 | i | -54.6 | 15.6 | 10.0 | -5.5 | -8.1% | 0.676 | -1.9
O=C(O)COc1ccc(F)cc1Br | -3.6 | i | -2.7 | 9.6 | 0.9 | -1.4 | nt | 0.649 | 0.0
CCOc1cc(/C=C/c2cc(C(F)(F)F)[nH]c(=O)n2)ccc1O | 99.0* | i | -1.9 | -30.7 | -30.2 | -0.6 | 2.4% | nt | -1.3
CCc1ccc(C(=O)Nc2nnn(CC)n2)cc1 | 3.9 | i | 10.0 | -0.3 | 8.8 | -5.2 | 5.9% | 0.683 | -0.7
CCN(CC(=O)Nc1ccc(NC(C)=O)cc1)C(=O)c1ccc(COc2ccccc2)o1 | nt | i | -0.6 | 0.2 | 4.3 | -1.4 | -1.7% | 0.642 | -1.1
CC(C)C(NC(=O)OCc1ccccc1)C(=O)OCC(=O)NC1CC1 (configuration not stated) | -7.4 | i | -0.7 | 4.6 | 0.5 | 0.8 | 4.3% | 0.682 | -5.0
O=c1c2ccccc2oc2cc(-c3ccc4cc[nH]c4c3)ccc12 | -11.2 | i | 1.0 | 9.2 | -0.8 | 30.1 | nt | 0.745 | 0.8
O=C(Nc1cccc(S(=O)(=O)N2CCOCC2)c1)c1ccc2c(=O)n3c(nc2c1)CCCCC3 | -5.4 | i | -0.3 | -24.6 | -25.2 | 3.8 | -5.3% | 0.707 | 0.9
COc1ccc(-n2c(COc3ccc(Cl)cc3Cl)n[nH]c2=S)cc1 | nt | nt | 4.5 | -2.1 | -10.8 | 7.8 | 0.7% | nt | 1.6
Cc1noc(C)c1S(=O)(=O)Nc1ccc2c(c1)CC(=O)N([C@@H](C)CO)C[C@H](C)[C@H](CN(C)S(=O)(=O)c1cccs1)O2 | nt | i | -1.1 | 2.0 | 1.5 | 3.4 | nt | nt | nt
Cc1cnc(C(=O)OCC(=O)Nc2sc3c(c2C#N)CCC3)cn1 | 20.6 | i | -14.4 | 7.5 | 12.9 | 1.3 | 18.8% | 0.674 | -2.7
CC(C)(C)NC(=O)C(C1CC1)n1c(=O)c(-c2ccccc2)nc2ccccc21 (configuration not stated) | nt | i | 4.5 | -1.3 | -1.7 | -1.0 | nt | nt | -1.5
CC(C)(C)NC(=O)CSc1nc(O)cc(=O)n1-c1ccccc1 | 9.9 | i | 2.9 | 11.4 | 3.7 | 5.3 | 1.3% | 0.64 | -0.9
O=C(O)CCNS(=O)(=O)c1ccc2c(c1)Cc1ccccc1-2 | -1.4 | nt | nt | nt | nt | nt | -6.4% | 0.736 | 2.3
C[C@H](CO)N1C[C@H](C)[C@H](CN(C)C(=O)NC2CCCCC2)OCCCC[C@H](C)Oc2ccc(NC(=O)Nc3cccc4ccccc34)cc2C1=O | nt | i | -0.3 | 1.9 | 6.5 | -2.0 | nt | nt | nt
Cn1nnc2ccccc2c1=O | -7.7 | i | -1.0 | 11.5 | 13.4 | 1.9 | -1.9% | 0.685 | 3.8
CCOc1ccc(CCN2C(=O)C3C4C=CC(C4)C3C2=O)cc1OCC (configuration not stated) | 2.3 | i | -0.9 | -0.2 | -4.6 | -2.4 | 1.6% | 0.741 | 0.6
O=C(CCSc1ccccc1)Nc1nnc(-c2ccccc2)o1 | -9.5 | i | 2.9 | -13.5 | -41.3 | 2.5 | 22.4% | 0.713 | -0.3
COc1ccc2c(c1)CCc1c(C(=O)N3CC4(C)CC3CC(C)(C)C4)noc1-2 (configuration not stated) | -81.0 | nt | nt | nt | nt | nt | 0.9%&2.0% | 0.734 | -2.1
Cc1cc2n(n1)SC(Nc1ccc(F)c(Cl)c1)N2 (configuration not stated) | 56.6 | nt | nt | nt | nt | nt | 7.9% | 0.664 | 0.4
Clc1ccc(-c2nnc(-c3ccccc3)c(-c3ccccc3)n2)cc1 | 5.0 | i | 16.6 | 10.8 | 4.5 | -2.3 | 7.0% | 0.721 | 0.2
Cc1nn2c(CN(C(=O)CN3CCOCC3)c3ccccc3)nnc2c2ccccc12 | 0.6 | nt | nt | nt | nt | nt | ? | 0.651 | -2.8
Cc1ccc(-n2c(CCC(=O)O)ccc2-c2cccs2)cc1 | 94.2* | i | -11.1 | -27.9* | -10.6* | 8.4* | 9.9% | 0.665 | 9.9
C[C@@H]1CN([C@H](C)CO)C(=O)Cc2cc(NC(=O)CCC(F)(F)F)ccc2O[C@@H]1CN(C)C(=O)Nc1cccc2ccccc12 | nt | i | 0.8 | -1.0 | -7.6 | 0.4 | nt | nt | nt
CC1(C(=O)NCC2CC2)Cc2c(-c3cccc(C(F)(F)F)c3)ccnc2O1 (configuration not stated) | nt | i | 0.6 | -4.5 | -29.1 | -6.9 | nt | nt | 3.5
Cc1ccc(S(=O)(=O)N(C)/N=C2/C(=O)N(CC(=O)O)c3ccccc32)cc1 | 10.0 | i | 0.3 | 3.3 | 6.4 | -2.6 | nt | nt | -0.5
CN(C(=O)COC(=O)Cc1c[nH]c2ccccc12)c1c(N)n(Cc2ccccc2)c(=O)[nH]c1=O | -4.0 | i | 1.1 | 19.5 | 10.2 | 0.8 | -3.3% | 0.716 | 1.0
O=C(CSC1=Nc2ccccc2C2CC=NN12)Nc1ccc(F)c(F)c1F (configuration not stated) | 70.7 | i | -1.0 | 7.5 | 12.3 | -1.5 | -16.5% | 0.655 | 3.3
O=C(NO)c1ccc(C(=O)N(C2CCCCC2)C2CCCCC2)cc1 | 29.4 | nt | nt | nt | nt | nt | -0.2% | 0.743 | 5.8
Cc1ccc(O)c(NC(=O)c2cc3nc4c(c(C(F)(F)F)n3n2)CCc2ccccc2-4)c1 | -17.1 | nt | nt | nt | nt | nt | -11.5% | 0.717 | -3.1
O=C(N/N=C/c1c(Cl)[nH]c2ccccc12)c1sc2ccccc2c1Cl | nt | i | 9.3 | -1.8 | -2.9 | -2.6 | 7.9% | nt | -1.8
CC(C)CCNC(=O)Cn1c(=O)oc2cc(S(=O)(=O)N3CCc4ccccc43)ccc21 | -37.7 | i | 1.0 | -3.1 | -29.5 | 1.6 | -1.7% | 0.782 | -0.5
O=S(=O)(CCc1ccccc1)N1CCOCC1 | -8.2 | nt | nt | nt | nt | nt | 5.7% | 0.697 | -1.2
COc1cc(OC)cc(-c2c(Sc3ccccc3)c3cc(-c4ccc(OC)c(OC)c4)ccc3n2C)c1 | nt | i | -1.3 | 10.9 | 24.5 | -4.3 | nt | nt | 1.6
COc1ccc(-c2[nH]ncc2/C=N\NC(=O)c2ccc(C(C)(C)C)cc2)cc1OC | -4.4 | i | 7.6 | 3.4 | 6.1 | -5.6 | 7.4% | nt | 1.7
O=C(CNC(=O)c1ccco1)OCc1ccc(C(=O)c2ccccc2)cc1 | nt | i | 0.7 | -33.1* | -18.4* | -0.8* | 7.6% | 0.701 | 1.9
Cc1ccc(-n2nnnc2SCC(=O)NCC2(N3CCOCC3)CCCCC2)c(C)c1 | nt | i | -12.9 | -3.2 | -23.6 | 12.6 | 0.1% | 0.642 | -0.6
COc1ccc(CCNC(=O)CSc2nccc(=O)[nH]2)cc1OC | -15.8 | i | -2.0 | 17.8 | 11.9 | 0.3 | -1.4% | 0.698 | -1.7
COCCNC(=S)N1CCN(c2nc(-c3ccccc3)cs2)CC1 | 27.0 | i | 0.2 | -12.7 | -14.8 | -3.5 | nt | 0.657 | -0.6
O=C(OCC(=O)N1CCC(Cc2ccccc2)CC1)c1ccc[nH]c1=O | -3.0 | nt | nt | nt | nt | nt | 4.7% | 0.745 | 0.0
O=C(c1ccccc1)c1c(O)nc(-c2ccccc2)n(-c2ccccc2)c1=O | nt | i | 4.0 | -24.9* | 5.1* | 5.3* | -10.1% | 0.645 | -3.3
CCC(=O)N(C)C[C@@H]1Oc2ncc(-c3ccccc3C)cc2C(=O)N([C@@H](C)CO)C[C@@H]1C | nt | i | -4.1 | 0.3 | -11.5 | -1.2 | nt | nt | nt
O=[N+]([O-])c1c(NCCCO)cc(SCc2ccco2)c2nonc12 | 3.1 | i | 7.8 | -2.8 | 10.8 | 3.0 | 4.65µM* | 0.636 | -2.3
COc1ccc(S(=O)(=O)N(C)C[C@H]2OCCCC[C@@H](C)Oc3ccc(NC(=O)Nc4ccc5c(c4)OCO5)cc3C(=O)N([C@@H](C)CO)C[C@@H]2C)cc1 | nt | i | 1.7 | -3.1 | 2.7 | -0.1 | nt | nt | nt
Cc1c(NC(=S)NC(=O)c2ccccc2)c(=O)n(-c2ccccc2)n1C | nt | i | -0.4 | 18.7 | 9.9 | -0.3 | nt | 0.71 | -1.6
Cc1ccc(S(=O)(=O)N(C)C[C@H]2OCCCC[C@@H](C)Oc3ccc(NC(=O)Nc4ccc5c(c4)OCO5)cc3C(=O)N([C@@H](C)CO)C[C@H]2C)cc1 | nt | i | 4.0 | -6.6 | 5.6 | -6.1 | nt | nt | nt
Cc1cccc(C(=O)OCC(=O)N(CC(C)C)c2c(N)n(Cc3ccccc3)c(=O)[nH]c2=O)c1C | nt | nt | -2.4 | 7.3 | 7.8 | -2.8 | -1.3% | 0.646 | 2.6
CCC(CO)Oc1cc(NCc2cccc(OC)c2)c2ncn(C(C)C)c2c1 (configuration not stated) | 42.8 | i | 4.8 | 1.2 | 1.4 | 9.6 | nt | 0.676 | 5.5
CCCC#Cc1ccc([C@H]2[C@H](CO)N3CCCCN(S(=O)(=O)c4ccccc4F)C[C@@H]23)cc1 | nt | i | 10.0 | -12.2 | -19.0 | 22.8 | nt | nt | nt
C[C@@H]1CN([C@H](C)CO)C(=O)c2cccc(NC(=O)C3CC3)c2O[C@H]1CN(C)C(=O)Nc1ccc(F)cc1 | nt | i | -1.9 | 0.4 | 2.0 | 0.2 | nt | nt | nt

Part of the list above, reformatted.
molecule	ALR inh	FGF22 binding	MLL AF4-AF9 inh	rRNA inh HTS	rRNA inh HTS OD600	rRNA inh HTS RFP	Vif A3G	E coli growth	HNF4A DNA FP
Cc1ccc(S(=O)(=O)N(C)C[C@H]2OCCCC[C@@H](C)Oc3ccc(NC(=O)Nc4ccc5c(c4)OCO5)cc3C(=O)N([C@@H](C)CO)C[C@H]2C)cc1	nt	i	4.0	-6.6	5.6	-6.1	nt	nt	nt
Cc1cccc(C(=O)OCC(=O)N(CC(C)C)c2c(N)n(Cc3ccccc3)c(=O)[nH]c2=O)c1C	nt	nt	-2.4	7.3	7.8	-2.8	-1.3%	0.646	2.6
